FGF22 binding: FGF22 (human) thermal shift binding; Q9HCT0; recombinant FGF22 thermal shift, SYPRO orange fluorescence; percent of sucrose octasulfate shift, DMSO zero; calls only at 9.99 µM; hit rate 1.5% among 340,000; AID 651658;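 active means melting point raised past a set limit in the mean and every replicate; inconclusive means no clear call; three in four hits are not shown here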
Target sequence (Q9HCT0 whole entry, looked up): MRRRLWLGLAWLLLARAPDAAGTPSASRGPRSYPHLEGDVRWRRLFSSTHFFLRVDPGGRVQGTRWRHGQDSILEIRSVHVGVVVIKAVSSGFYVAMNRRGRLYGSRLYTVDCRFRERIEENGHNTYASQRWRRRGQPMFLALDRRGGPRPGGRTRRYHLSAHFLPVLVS
Ecoli rRNA inh: inhibitors of bacterial rRNA selective over humanized ribosomes; hit rate 1.6% among 350,000; E. coli WT GFP vs humanized-ribosome RFP mutants, fluorescence, 24 h; hits give low values; DMSO median 0, no signal -100; GFP signal change (wild-type ribosome), % (no concentration beside the values); AID 720706;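 active means significant combined selectivity score with lowered wild-type GFP, culture density cut under 30%, mutant RFP and density less affected; inactive means any of these conditions unmet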; further: one replicate is shown; some compounds called inactive have numbers as strong as hits
MLL AF4-AF9 inh: MLL-AF4/AF9 protein interaction inhibition. P42568. AlphaScreen, biotin-AF4 peptide binding to FLAG-AF9. inhibition, % at 10 µM. hit rate 0.47% among 350,000. AID 651704;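 active means every replicate reaching a set inhibition limit, whatever the replicate mean, cut at about 25% in these data; inconclusive means mean inhibition reaches that limit but some replicates miss it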;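 further: 0% = plate neutral control median and 100% = total signal loss; the record names both 10 and 1 µM as test concentration; the first replicate is given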
Target sequence (P42568 whole entry, looked up): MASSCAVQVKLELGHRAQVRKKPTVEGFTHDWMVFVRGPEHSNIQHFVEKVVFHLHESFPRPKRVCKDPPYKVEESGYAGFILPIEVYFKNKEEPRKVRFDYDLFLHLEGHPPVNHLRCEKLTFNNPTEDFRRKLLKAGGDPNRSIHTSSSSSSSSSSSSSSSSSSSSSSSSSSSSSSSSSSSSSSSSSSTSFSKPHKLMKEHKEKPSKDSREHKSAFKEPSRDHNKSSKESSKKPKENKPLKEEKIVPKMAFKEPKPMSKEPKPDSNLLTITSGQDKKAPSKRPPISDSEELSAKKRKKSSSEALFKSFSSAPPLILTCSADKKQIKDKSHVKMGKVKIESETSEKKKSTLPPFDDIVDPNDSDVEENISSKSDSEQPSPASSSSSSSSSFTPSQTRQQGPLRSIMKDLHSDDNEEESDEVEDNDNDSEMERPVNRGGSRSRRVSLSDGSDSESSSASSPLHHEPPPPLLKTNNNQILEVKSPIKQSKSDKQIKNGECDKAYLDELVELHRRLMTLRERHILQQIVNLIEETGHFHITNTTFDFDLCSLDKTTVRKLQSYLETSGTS
ALR H2O2 inh: human ALR oxidase inhibition via reduced H2O2 | hit rate 3.8% among 290,000 | inhibition, % (concentration not given with the values) | P55789 | purified ALR, DTT oxidation, H2O2 HRP-luminol luminescence;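 active means mean and each replicate at 75% or more; inconclusive means only one of the two met; inactive means neither met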;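 further: stock transfer was 7.5 nL into about 7.5 µL; 0% = neutral wells and 100% = wells with inactivated enzyme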
Target sequence (P55789 whole entry, looked up): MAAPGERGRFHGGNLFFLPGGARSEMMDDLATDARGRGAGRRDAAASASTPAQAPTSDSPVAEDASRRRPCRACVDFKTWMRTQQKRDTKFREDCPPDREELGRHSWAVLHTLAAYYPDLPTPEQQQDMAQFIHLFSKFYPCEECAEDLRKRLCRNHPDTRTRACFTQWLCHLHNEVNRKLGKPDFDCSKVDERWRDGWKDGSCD
Ecoli growth: blocks Escherichia coli growth; OD600, 23 h; hits give low values; OD600 absorbance (no concentration beside the values); hit rate 0.21% among 330,000; AID 1053175;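 active means OD600 absorbance below the run mean of sample wells minus 3.6 SD, in any replicate, cut at about 0.56 in these data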;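 further: stock transfer was 300 nL into about 60 µL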
HNF4A DNA FP: change in binding of human HNF4 alpha to DNA; P41235; hit rate 0.3% among 360,000; activity change, % at 10 µM; HNF4a-FITC DNA binding, fluorescence polarization, 1 h; in the data active means activity change above about 30%, passing the limit was not always enough;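 further: controls were the assay level and a saturating level of protein; the project sought stronger binding though the title names inhibitors; some compounds called inactive have numbers as strong as hits; positive values seem to mean higher polarization but the record does not say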
Vif TR-FRET: inhibitors of Vif binding to APOBEC3G peptide, primary screen, biochemical, TR-FRET, GST-Vif 1-94, biotin-A3G peptide, dose response retest (AID 1117319); hit rate 0.57% among 260,000; TR-FRET GST-Vif / biotin-A3G peptide binding; higher % means a stronger effect; test concentration not given here; strong numbers were not always called active; inhibition, %, or IC50 in µM where a hit was titrated;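 active means above the screen mean plus three standard deviations and confirmed in dose response; inconclusive means results disagree or hit not tested in dose response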;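 further: Vif residues 1-94 fused to GST binding biotinylated APOBEC3G peptide 110-148; 0% = full assay without inhibitor and 100% = GST in place of GST-Vif; retest series ran down from 100 µM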
Ecoli rRNA inh OD600: further read-out of Ecoli rRNA inh, marked with its call; OD600 change, %; measured here: OD600 growth;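 optical density of the mix in the first replicate; 0 = DMSO median and -100 = no signal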
Ecoli rRNA inh RFP: further read-out of Ecoli rRNA inh, marked with its call; RFP signal change, %; measured here: RFP humanized mutant strains;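 first replicate; 0 = DMSO median and -100 = no signal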
* marks the source's active call; other numbers are inactive results; i = inactive; u = inconclusive; x = no result given; & = joins results of further samples. Only part of the results is shown; the hit share may differ from the screen's.

SMILES | FGF22 binding | Ecoli rRNA inh | Ecoli rRNA inh OD600 | Ecoli rRNA inh RFP | MLL AF4-AF9 inh | ALR H2O2 inh | Ecoli growth | HNF4A DNA FP | Vif TR-FRET
COc1cccc(OC)c1C(=O)Nc1nc2ccc([N+](=O)[O-])cc2s1 | x | 14 | 0 | -3.2 | -2.9 | 0 | 0.73 | 4.2 | x
COc1ccccc1C1(CCNS(=O)(=O)c2ccc(C)cc2)CCOC(C(C)C)C1 (stereo not drawn) | x | x | x | x | x | -3 | 0.72 | 0.6 | 8%
CC[C@@]1(C(=O)OC)N[C@H](CN(C)S(=O)(=O)c2ccc(C(C)(C)C)cc2)[C@@H]2C(=O)N(C)C(=O)[C@@H]21 | i | 2 | 1 | 1.4 | -0.5 | x | 0.7 | 1.7 | 3%
Cc1ccc(-c2nc(C#N)c(NCC3CCCO3)o2)cc1 (stereo not drawn) | i | -24* | -19* | -7.7* | 2.2 | x | 0.67 | -0.2 | -1%
C/C=C/c1ccc([C@@H]2[C@H](CO)N(C(=O)C3CC3)[C@H]2CN(CC)C(C)=O)cc1 | i | -3 | 5 | -2.8 | 0.7 | x | x | x | x
CCCC(c1nnnn1Cc1ccc2c(c1)OCO2)N1CCC(C(N)=O)CC1 (stereo not drawn) | i | 6 | 4 | -4.8 | -1.7 | -5 | 0.64 | 2.3 | x
CCCCCC(=O)Nc1ccc(S(=O)(=O)Nc2cc(OC)nc(OC)n2)cc1 | i | -1 | -2 | -2.3 | -3.1 | -9 | 0.67 | 2.0 | 3%
Cc1cc(S(=O)(=O)NCc2ccco2)c(C)cc1Cl | i | -10 | -23 | 0.7 | 1.1 | 49 | 0.71 | 1.7 | 2%
CC(C)CNS(=O)(=O)c1ccc(CCC(=O)NCc2ccco2)cc1 | x | x | x | x | x | -16 | 0.7 | 0.9 | u
O=S(=O)(Nc1ccc(-c2ccc3nncn3n2)cc1)c1ccccc1F | i | 10 | 5 | 0.9 | -0.6 | -3 | 0.7 | -3.5 | -3%
CS(=O)(=O)N1CCN(C(=O)c2ccc(-c3ccccc3)cc2)CC1 | x | x | x | x | x | -6 | 0.76 | -0.5 | 2%
Cc1nc(-c2cccnc2)sc1C(=O)N/N=C/c1ccccc1Cl | i | x | x | x | 0.0 | 2 | x | 2.1 | x
COCC(=O)Nc1ccc2c(c1)OC[C@@H](C)N(C(=O)c1ccccc1)C[C@H](C)[C@H](OC)CN(C)C2=O | i | -1 | -7 | -1.2 | -1.1 | x | x | x | x
Cc1ccccc1-n1nnnc1SCC(=O)Nc1ccc(N2CCN(C)CC2)cc1 | i | 2 | 6 | -0.8 | 2.6 | -2 | 0.69 | 1.1 | x
Fc1ccc(Cn2nnnc2C(c2cccs2)N2CCN(C3CCCCC3)CC2)cc1 (stereo not drawn) | i | 5 | -3 | -1.6 | 2.5 | -1 | 0.65 | 0.7 | 5%
CCCCn1c(N)c(N(CCOC)C(=O)C2CCN(S(=O)(=O)c3ccc(C)c(C)c3)CC2)c(=O)[nH]c1=O | i | 4 | 0 | 0.5 | -3.0 | 1 | 0.71 | -1.2 | -18%
Cc1cccc(NC(=S)NCCSc2ccc(Cl)cc2)c1 | i | -37* | -28* | 5.7* | 0.5 | x | 0.62 | -0.5 | x
COc1ccc(-c2cc(C(F)(F)F)n3ncc(C(=O)NCC4CCCO4)c3n2)cc1OC (stereo not drawn) | x | x | x | x | x | -2 | x | 12 | 7%
O=C(C[C@H]1C=C[C@@H](NC(=O)c2ccc3c(c2)OCO3)[C@@H](CO)O1)NCc1ccc(Cl)cc1 | i | -2 | 4 | -0.1 | -2.3 | x | x | x | x
Cc1nnsc1SCCNC(=O)c1c(F)cccc1F | x | x | x | x | x | 2 | 0.72 | -0.7 | 0%
CC(C)c1ccc(CC(C)C2C3=C(CCCC3=O)OC3=C2C(=O)CCC3)cc1 (stereo not drawn) | x | x | x | x | x | -21 | 0.74 | -1.3 | -1%
COc1ccc(NC(=O)Cn2nc(C)c3ccccc3c2=O)cc1 | i | -2 | 9 | 1.7 | -0.4 | -4 | 0.67 | -0.1 | x
COCCNc1nc(NCCCN(C)C)c2sccc2n1 | i | 4 | 16 | -2.2 | -0.7 | x | x | 2.0 | x
O=C(C[C@H]1C[C@@H]2c3cc(NC(=O)C4CCOCC4)ccc3O[C@@H]2[C@@H](CO)O1)NCC(F)(F)F | i | 4 | 6 | -1.6 | -4.2 | x | x | x | x
CCNCCNC(=O)c1c(O)c2cccc3c2n(c1=O)CCC3 | x | x | x | x | x | -10 | 0.64 | 1.4 | -4%
CC1=C(C(=O)OCCOC(C)C)C(c2cc3c(cc2Br)OCO3)C2=C(CCCC2=O)N1 (stereo not drawn) | x | x | x | x | x | -13 | 0.69 | -6.7 | 0%
Cc1cc(C)cc(NC(=O)N2CCN(S(C)(=O)=O)CC2)c1 | i | 7 | 6 | 5.2 | 0.6 | -4 | 0.65 | 3.3 | 17%
COc1ccc(NS(=O)(=O)c2c(F)cccc2F)cc1S(=O)(=O)N1CCOCC1 | i | 15 | 7 | 0.4 | -0.1 | x | 0.69 | 0.3 | 8%
CC(C)CCn1c(N)c(S(=O)(=O)c2cccs2)c2nc3ccccc3nc21 | i | -1 | 1 | 5.6 | 4.3 | -2 | 0.71 | -0.9 | 5%
CSc1nc2ccc(NS(=O)(=O)c3cccc(Cl)c3Cl)cc2s1 | i | -38 | -63 | -5.7 | -5.4 | -50 | 0.66 | 2.4 | x
O=[N+]([O-])c1ccc(N2CCN(S(=O)(=O)c3ccccc3)CC2)cc1NCc1ccco1 | x | x | x | x | x | -5 | 0.68 | x | u
C[C@@H]1CN([C@H](C)CO)C(=O)Cc2cc(NC(=O)Nc3ccc(C(F)(F)F)cc3)ccc2O[C@H]1CN(C)Cc1ccncc1 | i | 0 | -21 | 4.7 | -0.8 | x | x | x | x
Cc1cc(C)n(-c2ccc(F)cc2)c(=O)c1C#N | i | 16 | 16 | 1.3 | -2.3 | 1 | 0.7 | -3.7 | -4%
C/C(=N\S(=O)(=O)c1ccc(C)cc1)N(C)C | i | -1 | 4 | 2.5 | 3.5 | -14 | x | 0.3 | -1%
COc1cc(/C=C(/C#N)C(=O)NCCc2c[nH]c3ccccc23)ccc1OCc1ccccc1F | x | x | x | x | x | -1 | 0.79 | 0.0 | 3%&1%
O=C(COC(=O)CCc1c[nH]c2ccccc12)NCCc1ccccc1 | x | -1 | -8 | 2.1 | 1.6 | 42 | x | 4.6 | x
O=C(O)c1cccc(S(=O)(=O)Nc2ccc3c(c2)CCC3)c1 | i | -3 | -8 | 6.1 | -0.7 | 0 | 0.64 | 0.2 | x
O=C(C[C@@H]1CC[C@H]2[C@@H](COC[C@@H](O)CN2Cc2cccc(Cl)c2)O1)N1CCOCC1 | i | -2 | -5 | -2.9 | -2.3 | x | x | x | x
CC(=O)c1cccc(NC(=O)c2cc3nc(C)cc(C)n3n2)c1 | x | x | x | x | x | -8 | 0.69 | -0.4 | u
Clc1ccc(OCc2nn3c(-c4ccco4)nnc3s2)c(Cl)c1 | x | x | x | x | x | -2 | 0.61 | -14 | 63µM*
CCCc1cc(C(=O)Nc2ccccc2C(=O)OC)no1 | i | -1 | -11 | -3.2 | -2.5 | -1 | 0.71 | -2.0 | 1%
COc1ccccc1-c1cc(C(=O)N2CCN(c3ccccc3)CC2)no1 | i | x | x | x | 3.0 | -2 | 0.69 | -0.3 | 0%
CCOC(=O)[C@]12CCCC=C1N(Cc1cccc3ccccc13)C(=O)[C@H](CC(=O)NCc1ccc(C)o1)C2 | i | 6 | 0 | 3.7 | -0.2 | x | x | 0.3 | x
O=C(Nc1ccccc1Cl)c1cc(C2CCCN(C(=O)c3cccs3)C2)on1 (stereo not drawn) | i | -12 | -33 | 6.7 | -0.2 | x | x | -1.5 | x
Cn1c(-c2ccccc2)c(/C=N/NC(=O)c2ccc(O)cc2)c2ccccc21 | i | -21 | -16 | -2.2 | -0.7 | 0 | x | 0.2 | x
COc1ccccc1-c1cn(CC[C@H]2CC[C@@H](NC(=O)NC(C)C)[C@@H](CO)O2)nn1 | i | -4 | -4 | 0.3 | -2.5 | x | x | x | x
CC(=O)Nc1ccc(NC(=O)c2nccnc2C(=O)O)cn1 | i | 11 | 9 | -0.1 | -2.1 | -8 | 0.65 | -3.5 | -2%
COc1cc2cc(CN(CCCO)S(=O)(=O)c3ccccc3Cl)c(=O)[nH]c2cc1OC | i | x | x | x | -23 | -10 | 0.65 | 1.5 | u
CO[C@H]1[C@@H]2C=CO[C@@H](O[C@H]3O[C@@H](CO)[C@H](O)[C@@H](O)[C@@H]3O)[C@@H]2[C@@]2(CO)O[C@@H]12 | i | 0 | 6 | 0.7 | -4.2 | -1 | 0.81 | -0.2 | x
CC(C)COC(=O)N(C)C[C@@H]1OCc2ccccc2-c2ccccc2C(=O)N([C@H](C)CO)C[C@H]1C | i | 1 | 1 | 0.7 | -0.9 | x | x | x | x
CCN(CC)c1ccc2ccc(=O)oc2c1 | i | -11 | -14 | 4.5 | -8.5 | 98* | 0.65 | -1.2 | u
O=C(NC1CCCC1)[C@H]1[C@H](CO)[C@H]2Cn3c(ccc(-c4ccc(F)cc4)c3=O)[C@@H]1N2Cc1cocn1 | i | -3 | 9 | -3.5 | -1.8 | x | x | x | x
CNC(=O)C[C@H]1CC[C@H]2[C@@H](COc3ccc(NC(=O)c4cc(F)cc(F)c4)cc3C(=O)N2C)O1 | i | 3 | -4 | -1.3 | -2.1 | x | x | x | x
COc1ccc(NC(=O)CSc2nc3c(c(=O)n2-c2ccccc2OC)SCC3)cc1 | i | 9 | 4 | 0.0 | -0.3 | 64 | 0.75 | -2.6 | -1%
Cc1ccc(F)c(S(=O)(=O)NC(=O)C2(C)CCN2C(=O)Cc2cc(F)ccc2F)c1 (stereo not drawn) | i | 7 | 14 | -0.2 | -4.7 | x | x | -0.8 | x
COC(=O)CN(C#N)c1nc(OC)nc(N(C)C)n1 | x | x | x | x | x | 4 | 0.68 | -2.2 | 8%

Six consecutive records out of the list so far:
SMILES | FGF22 binding | Ecoli rRNA inh | Ecoli rRNA inh OD600 | Ecoli rRNA inh RFP | MLL AF4-AF9 inh | ALR H2O2 inh | Ecoli growth | HNF4A DNA FP | Vif TR-FRET
CCN(CC)c1ccc2ccc(=O)oc2c1 | i | -11 | -14 | 4.5 | -8.5 | 98* | 0.65 | -1.2 | u
O=C(NC1CCCC1)[C@H]1[C@H](CO)[C@H]2Cn3c(ccc(-c4ccc(F)cc4)c3=O)[C@@H]1N2Cc1cocn1 | i | -3 | 9 | -3.5 | -1.8 | x | x | x | x
CNC(=O)C[C@H]1CC[C@H]2[C@@H](COc3ccc(NC(=O)c4cc(F)cc(F)c4)cc3C(=O)N2C)O1 | i | 3 | -4 | -1.3 | -2.1 | x | x | x | x
COc1ccc(NC(=O)CSc2nc3c(c(=O)n2-c2ccccc2OC)SCC3)cc1 | i | 9 | 4 | 0.0 | -0.3 | 64 | 0.75 | -2.6 | -1%
Cc1ccc(F)c(S(=O)(=O)NC(=O)C2(C)CCN2C(=O)Cc2cc(F)ccc2F)c1 (stereo not drawn) | i | 7 | 14 | -0.2 | -4.7 | x | x | -0.8 | x
COC(=O)CN(C#N)c1nc(OC)nc(N(C)C)n1 | x | x | x | x | x | 4 | 0.68 | -2.2 | 8%

Bioassay records as filed in PubChem BioAssay.
